Source: PubChem (National Center for Advancing Translational Sciences (NCATS))
VDR inh: Inhibitors of the vitamin D receptor (VDR): qHTS | VDR-SRC2-3 peptide fluorescence polarization, 2 h | Vitamin D3 receptor (Homo sapiens), P11473 | 400,000 compounds, 0.93% hits | Potency, µM, without a hit: max response, negative = inhibition, actives largely listed as inhibitors; active means well fitted inhibition curve with a large enough effect; inconclusive means small, poorly fitted or top-dose-only effect, or another doubt; inactive means no such curve, though single readings can be large or run the other way; further: series mostly up to about 120 µM
Target sequence (P11473 whole entry, looked up): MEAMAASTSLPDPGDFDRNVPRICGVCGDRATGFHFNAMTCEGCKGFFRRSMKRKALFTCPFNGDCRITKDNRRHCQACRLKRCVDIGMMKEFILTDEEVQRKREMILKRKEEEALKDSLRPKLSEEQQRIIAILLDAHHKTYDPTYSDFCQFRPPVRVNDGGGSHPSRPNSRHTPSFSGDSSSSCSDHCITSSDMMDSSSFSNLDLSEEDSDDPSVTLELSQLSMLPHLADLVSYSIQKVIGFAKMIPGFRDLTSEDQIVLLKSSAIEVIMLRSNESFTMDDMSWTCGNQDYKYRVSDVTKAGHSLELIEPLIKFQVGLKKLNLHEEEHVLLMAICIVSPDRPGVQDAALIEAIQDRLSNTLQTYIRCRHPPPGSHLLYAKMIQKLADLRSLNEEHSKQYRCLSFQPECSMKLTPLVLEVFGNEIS
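Measured by FP: displacement of SRC2-3 coactivator peptide from VDR by library compounds, following a two-hour ambient incubation.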
* marks the source's active call; other numbers are inactive results; u = inconclusive; & = joins results of further samples. On the % scale 0 is the no-effect control and ±100 the full control effect; potency means the concentration at half of the fitted maximal effect.

nr | SMILES | VDR inh
1 | CCCCC/C=C\C\C=C/C=C/C=C/[C@@H](SCC(NC(=O)CCC(N)C(=O)O)C(=O)NCC(=O)O)[C@@H](O)CCCC(=O)O (some centres undefined) | -7.7%
2 | O=C(COc1ccc(F)cc1F)Nc1cccnc1 | 6.7%
3 | CCn1ccc(C(=O)NCCCN2CCCC2=O)n1 | -4.2%
4 | CCCCn1nc2cc(C(=O)NCc3ccco3)ccc2c1OCC | -17.6%
5 | NC(=O)c1ccccc1NC(=O)CN1c2ccccc2S(=O)(=O)c2ccccc21 | 19.8%
6 | COc1ccc(CNC(=O)CCCc2ccccc2)cc1 | -24.8%
7 | COCCn1c(SCC(=O)NC2CCCC2)nnc1-c1ccco1 | 6.1%
8 | COc1ccc(/C=N/NC(=O)c2nn(-c3ccccc3)c(=O)c3c(N)scc23)cc1 | u
9 | CCc1ccccc1OCC(=O)Nc1cccc(S(=O)(=O)NC2=NCCC2)c1 | 12.4%
10 | Cc1cccc(C)c1NC(=S)N1CCCN(Cc2ccc(F)cc2)C1 | -6.4%
11 | COc1ccccc1N1CC(C(=O)Nc2ccc(N3CCOCC3)cc2)CC1=O (centres undefined) | -19.4%
12 | COc1cccc(N/N=C(\C#N)S(=O)(=O)C(C)(C)C)c1 | -7.1%
13 | CC(C)C[C@@H](NC(=O)[C@@H](O)[C@H](N)Cc1ccccc1)C(=O)O | 2.5%
14 | COc1ccccc1Nc1nc(-c2ccccc2)nc2ccccc12 | -2.4%
15 | O=C(COC(=O)COc1ccccc1[N+](=O)[O-])NC1CCCCC1 | 7.5%
16 | CCN(CC(=O)NC1CCS(=O)(=O)C1)C(=O)c1ccc(OC)c([N+](=O)[O-])c1 (centres undefined) | -3.3%
17 | NC1=NC(=O)/C(=C/c2c(OS(=O)(=O)c3ccc(Cl)cc3)ccc3ccccc23)S1 | -9.8%
18 | Cc1cc(C)cc(C(=O)OCC(=O)NCc2ccco2)c1 | -4.5%
19 | NCCC[C@@H](CC(=O)N[C@@H]1CCCC[C@H]1C(=O)N[C@H](CC(=O)N[C@@H](CCC(=O)O)CC(=O)O)Cc1ccccc1)NC(=O)C[C@H](Cc1c[nH]c2ccccc12)NC(=O)[C@@H]1CNCC[C@H]1N | -2.5%
20 | CC(=O)c1cccc(NC(=O)C(C)N2CCc3ccccc3C2)c1 (centres undefined) | -4.3%
21 | CCc1ccc([C@@H]2CC=C(C(=O)O)[C@H](c3ccccc3F)N2S(=O)(=O)c2ccc(C)cc2)cc1 | -7.9%
22 | Cc1nn(-c2ccccc2)c2c1C1(C(=O)N(C)c3ccccc31)N(c1ccccc1)C(=O)N2 (centres undefined) | 5.7%
23 | Cc1csc(NC(=O)CN(C)S(=O)(=O)c2cccc3cccnc23)n1 | -6.9%
24 | CCn1nnnc1NCc1c(OC)ccc2ccccc12 | -16.0%
25 | COc1ccc(NC(=O)C2CCN(C(=O)Nc3ccccc3)CC2)cc1S(=O)(=O)N(C)C | -5.9%
26 | O=C(NCc1cccc(Cl)c1)c1cccc(OC2CCN(C(=O)C3CC3)CC2)c1 | 4.2%
27 | COc1cccc(-n2c(SCC(=O)N3CCc4ccccc43)nnc2-c2c[nH]c3ccccc23)c1 | -13.8%
28 | CC(C)c1ccc(NC(=O)C2C3C=CC(CC3)C2C(=O)O)cc1 (centres undefined) | -2.8%
29 | OC(COc1ccccc1)Cn1cc(Br)cn1 (centres undefined) | -6.3%
30 | CC(C)n1nnnc1-c1cc(Cl)cc(Cl)c1 | 15.0%
31 | CC(=O)N1CCc2cc(S(=O)(=O)NC(CC(C)C)C(=O)Nc3cc(C(=O)O)ccc3C)ccc21 (centres undefined) | -3.1%
32 | COc1ccc(-c2nn(-c3ccccc3C)cc2CNC(C)c2cn(C)nc2C)cc1F (centres undefined) | 8.9%
33 | COc1cccc(NC(=O)C(NCC(C)(C)CN(C)C)c2ccccc2)c1 (centres undefined) | -1.7%
34 | Cc1nc(SCCCSc2n[nH]c(C)n2)n[nH]1 | 8.0%
35 | COc1cccc(CNC(=O)CSCC(=O)Nc2ccc(C)cc2)c1 | -3.3%
36 | Cc1cc(C(=O)C(C)OC(=O)c2cnccn2)c(C)n1-c1ccccc1 (centres undefined) | -10.4%
37 | CCN1C(=O)N(CC)C2NC(=S)NC21 (centres undefined) | -14.6%
38 | O=C1CN=C(Nc2ccccc2Cl)N1Cc1ccc2c(c1)OCO2 | u
39 | CCc1ccc(CNC(=O)c2c(C)oc3ncnc(N4CCOCC4)c23)cc1 | 16.6%
40 | CCOC(=O)c1cnc2ccc(C)cn2c1=O | -19.2%
41 | CC1Cc2ccccc2N1C(=O)CSc1ncc(-c2ccc(F)cc2)n1C (centres undefined) | -22.8%
42 | O=C(Nc1cccc(F)c1)N1CC[C@@]2(CCCN(C(=O)c3cc(C(F)(F)F)cc(C(F)(F)F)c3)C2)C1 | 8.0%
43 | CCCOc1ccc(N2C(=O)CC(NCCCN3CCC(C(N)=O)CC3)C2=O)cc1 (centres undefined) | -10.3%
44 | CCC(C(=O)NC1CCCC1)N(C(=O)Cn1nnc(-c2cccs2)n1)c1cnc2ccccc2c1 (centres undefined) | 0.2%
45 | COC(=O)CNC(=O)c1cc(-c2ccncc2)nc2ccc(C)cc12 | -10.4%
46 | Cc1cccc(CSc2ncnc3nc[nH]c23)c1 | -11.9%
47 | Cc1cc(C)n(-c2cc(C(=O)O)cc(C(=O)O)c2)n1 | 10.1%
48 | COC(C/C=C/[C@@H](O)[C@H](C)OCc1ccccc1)OC | -8.4%
49 | CCCCn1c(SCC(=O)NC(=O)Cc2ccccc2)nc2ccccc2c1=O | 13.8%
50 | O=C(Nc1ccccc1Oc1cccnc1)C1CCCN(C/C=C/c2ccccc2)C1 (centres undefined) | -1.3%
51 | O=C(CCN1C(=O)[C@@H]2Cc3ccccc3CN2C1=O)NCc1ccc(Cl)cc1 | -2.8%
52 | C[C@]1(c2ccccc2)OC(C(=O)O)=CC1=O | -2.7%
53 | COc1ccc2nc3n(c(=O)c2c1)-c1ccc(Cl)cc1C(=O)NC3Cc1ccc(O)cc1 (centres undefined) | 4.0%
54 | O=C1Nc2cc(C(=O)NCCCN3CCCC3)ccc2S/C1=C\c1ccccc1 | 12.6%
55 | Cc1ccc(OCc2cc(C(=O)N3CCN(CC(=O)NC(C)C)CC3)no2)cn1 | -17.1%
56 | O=C(OCc1nc2ccccc2[n+]([O-])c1C(=O)c1ccccc1)c1cccnc1 | 6.9%
57 | CN(C)CCNc1nc2c(c(=O)[nH]c(=O)n2C)n1CCOc1ccccc1 | 17.9%
58 | N/C(=N\OC(=O)c1ccccc1)c1ccccn1 | -9.5%
59 | Cc1ccc(NCc2ccc(Cl)nc2)c(NCc2ccc(Cl)nc2)c1 | -1.8%
60 | O=C(NCc1nnc(SCC(=O)N2CCc3ccccc32)o1)c1cccs1 | -25.2%

Continued (6 carried over from the part before).
nr | SMILES | VDR inh
55 | Cc1ccc(OCc2cc(C(=O)N3CCN(CC(=O)NC(C)C)CC3)no2)cn1 | -17.1%
56 | O=C(OCc1nc2ccccc2[n+]([O-])c1C(=O)c1ccccc1)c1cccnc1 | 6.9%
57 | CN(C)CCNc1nc2c(c(=O)[nH]c(=O)n2C)n1CCOc1ccccc1 | 17.9%
58 | N/C(=N\OC(=O)c1ccccc1)c1ccccn1 | -9.5%
59 | Cc1ccc(NCc2ccc(Cl)nc2)c(NCc2ccc(Cl)nc2)c1 | -1.8%
60 | O=C(NCc1nnc(SCC(=O)N2CCc3ccccc32)o1)c1cccs1 | -25.2%
61 | N#Cc1ccc(Oc2cccc(C(=O)O)c2)cc1C#N | -12.3%
62 | CCCCCOc1ccc(C(=O)CCC(=O)NC(C)c2ccc(S(N)(=O)=O)cc2)cc1 (centres undefined) | 2.1%
63 | Cc1onc(C(=O)Nc2sc3c(c2C#N)CCCC3)c1[N+](=O)[O-] | u
64 | Cc1ccc(S(=O)(=O)c2[nH]c(-c3ccccc3)nc2SCCC(=O)O)cc1 | 13.2%
65 | Cc1cc(=O)[nH]c2c(C)cc(S(=O)(=O)N3CCCCC3)cc12 | -17.4%
66 | COc1ccc(F)cc1CN1CCN(C(=O)CCC(=O)Nc2nnc(C(C)C)s2)CC1 | -13.8%
67 | Cc1cccc(C(=O)N/N=C/c2cc(Br)c(Br)o2)c1 | -4.4%
68 | CSc1ccc(-c2nc(CSCC(=O)NC3CC3)c(C)o2)cc1 | 12.8%
69 | O=C(Nc1cccc2nsnc12)c1ccc(-c2cccc(Cl)c2)o1 | u
70 | Cc1cccc(N=Nc2c(N)n[nH]c2-c2ccc(Cl)cc2)c1 | -2.1%
71 | COc1ccc(NC(=O)CCC2CCCC2)cc1OC | -6.4%
72 | O=C(N/N=C/c1cccc([N+](=O)[O-])c1)C1COc2ccccc2O1 (centres undefined) | -1.5%
73 | COC(=O)c1ccc(NC(=O)C2C3CCC(C3)C2C(=O)O)cc1 (centres undefined) | 10.0%
74 | O=C(CSc1nc2ccccc2c2c1CCCC2)N1CCOCC1 | -2.0%
75 | COc1ccccc1OCC(=O)N1CCCC(Nc2ccc(F)c(F)c2)C1 (centres undefined) | -14.2%
76 | NCCC[C@@H](CC(=O)N[C@@H]1CCCC[C@H]1C(=O)N[C@H](CC(=O)N[C@@H](CCC(=O)O)CC(=O)O)Cc1c[nH]c2ccccc12)NC(=O)C[C@H](CO)NC(=O)[C@@H]1CCCC[C@H]1N | -6.5%
77 | CC(C)=CCC/C(C)=C/CC/C(C)=C/CC/C=C(\C)CC/C=C(\C)CCC=C(C)C | -8.2%
78 | C=CCNC(=S)NNC(=O)c1cccnc1 | -6.7%
79 | Cc1cc(C)c2c(=O)c3c(oc2c1)C(=O)N(Cc1ccc(F)cc1)C3c1cccc(O)c1 (centres undefined) | 0.2%
80 | O=C(Nc1c(F)cc(F)cc1Br)c1cc(S(=O)(=O)N2CCN(c3ccccn3)CC2)ccc1F | 1.4%
81 | Cc1ccc(CCNC(=O)c2c(C)oc3ncn(CC(C)C)c(=O)c23)cc1 | 12.8%
82 | Cc1ccccc1N1CC(O)(c2cccs2)[N+]2=C1CCCC2 (centres undefined) | -5.7%
83 | O=C(NCc1ccco1)c1ccccc1NS(=O)(=O)c1ccc2c(c1)OCCO2 | 6.7%
84 | CCCCNC(=O)COC(=O)CNC(=O)c1cc(Cl)cc([N+](=O)[O-])c1 | -13.6%
85 | CC1CC(C)CN(S(=O)(=O)c2cccc(C(=O)N3CCN(c4ccc(F)cc4)CC3)c2)C1 (centres undefined) | 12.8%
86 | C/C(=C\C(=O)c1ccccc1)Nc1ccc(O)cc1 | -24.6%
87 | CCCN1CNc2c(c(=O)[nH]c(=S)n2CCc2ccccc2OC)C1 | -3.5%
88 | COc1ccc(C(=O)N2CCN=C2SCc2cccnc2)c(OC)c1 | -11.0%
89 | CCOC(=O)N1CCN(C(=O)c2cnc3n(c2=O)CCS3)CC1 | -7.4%
90 | Cc1ccc2c(CN3CCN(Cc4ccccc4)CC3)cc(=O)oc2c1 | 10.7%
91 | COc1ccccc1NC(=O)Cn1cc(C#N)c2ccccc21 | 16.0%
92 | CC(C)(C)OC(=O)N1CCOCCOCCN(C(=O)OC(C)(C)C)CCOCCOCC1 | -10.0%
93 | C/C=C/c1ccc(OCC(=O)OCc2csc(CC(=O)Nc3ccccc3C)n2)c(OC)c1 | 7.3%
94 | O=C(CSc1nc2ccccc2c(=O)n1-c1ccccc1)c1c[nH]c2ccccc12 | u
95 | CCNC(=O)c1ccc(C2SCC(=O)N2Cc2ccco2)cc1 (centres undefined) | -8.8%
96 | COc1ccc(Cc2nn[nH]n2)cc1 | 4.1%
97 | C#CCOCCOCCOCCNc1nc(N2CCN(C(=O)[C@H]([C@@H](C)CC)n3cc(CCCCN)nn3)CC2)nc(N2CCN(C(=O)[C@H](CCCCN)n3cc(CC(C)O)nn3)CC2)n1 (some centres undefined) | -5.7%
98 | Cc1cccc(N2CCN(S(=O)(=O)c3ccc4c(c3)NC(=O)CO4)CC2)c1C | -26.8%
99 | O=C(CN1C(=O)C(c2ccccc2)Oc2cccnc21)NCc1ccccc1F (centres undefined) | u
100 | CC1(C)CC(NCCC(c2ccccc2)c2ccco2)CCO1 (centres undefined) | 16.3%
101 | Cc1c(NC(=O)c2ccc(CC(C)C)o2)c(=O)n(-c2ccccc2)n1C | 8.1%
102 | COC(=O)c1c(-c2cccs2)csc1NC(=O)c1ccc(C(C)(C)C)cc1 | u
103 | Cc1ccc(CNc2ncccc2-c2nc3cc(Cl)ccc3o2)cc1 | 2.2%
104 | CCCCn1c(NC(C)CC)nc2c1c(=O)[nH]c(=O)n2C (centres undefined) | 10.1%
105 | COc1ccc(-c2cc(C(F)(F)F)n3nc(C(=O)Nc4cc(Cl)cc(Cl)c4)cc3n2)cc1 | -16.6%
106 | Cc1cc(C)cc(NC(=O)N2CCCC2C(=O)Nc2ccc(-n3cnnn3)cc2)c1 (centres undefined) | 17.5%
107 | COc1ccc2c(CN3CCN(S(=O)(=O)c4cccs4)CC3)cc(=O)oc2c1 | 0.6%
108 | Cc1ccc(-n2nnnc2CNC(=O)c2cc(C(F)(F)F)cc(C(F)(F)F)c2)cc1C | 12.6%
109 | Cc1c(C(=O)NCc2cccnc2)oc2ccc(S(=O)(=O)N3CCC4(CC3)OCCO4)cc12 | -5.2%
110 | CCC(Cc1ccccc1)NC(=O)C1CCCCC1 (centres undefined) | 1.5%
111 | COc1ccc(NC(=O)CN(C)C(=O)CCCN2C(=O)c3cccc4cccc(c34)C2=O)cc1 | -2.4%
112 | COC(=O)c1c(C)nc2nonc2c1N | -8.9%
113 | CC(=O)N1CCCC1c1nc2ccccc2n1Cc1c(F)cccc1Cl (centres undefined) | 8.5%
114 | CC1CCCC(NC(=O)Cn2cc(Br)ccc2=O)C1C (centres undefined) | -6.2%
115 | CCN1CCc2c(sc(NC(=O)c3cc4ccccc4cc3OC)c2C(N)=O)C1 | 10.9%
116 | COc1ccc(-n2ncc3c2CC(C)(C)CC3NC(=O)c2ccnn2C)cc1 (centres undefined) | 9.5%
117 | CCc1ccc(OCC(=O)N(Cc2ccco2)Cc2ccccc2Cl)cc1 | 13.6%
118 | O=C1C2C3C=CC(CC3)C2C(=O)N1c1ccccc1 (centres undefined) | -11.0%
119 | Cc1cccc(NC(=O)C(=O)NCCCN2CCOCC2)c1 | -4.7%&-24.4%

A portion of the library (hit frequency here may not be typical).
